Assay outcomes deposited in PubChem by National Center for Advancing Translational Sciences (NCATS).
gsp antagonist – gsp mutant antagonism. AID 624288. hit rate 0.4% among 340,000. gsp-mutant cells, cAMP HTRF, 30 min; control for the full effect not named in the record. Potency, µM (titrated, usually from 76.9 µM), inactives show top-dose activity change, negative = inhibition, hits mostly inhibitors; active = falling curve of any shape with a large fitted effect; inconclusive = falling curve, mostly with a smaller effect; inactive = flat or rising curve; cell line not stated here;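 further: intracellular cAMP measured with PDE inhibitor Ro 20-1724 present during compound exposure; potency means the concentration at half of the fitted maximal effect; on the % scale 0 is the no-effect control and ±100 the full control effect; nearly all actives have a fitted effect of over 65% in size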
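Cells in G418 medium, seeded 16-24 h, 37C; buffer exchange to DPBS + 1 mM CaCl2, 0.5 mM MgCl2, 0.05% BSA; cpds in DMSO + […] (300 uM stock), 30 min 37C; HTRF cAMP detection.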
Sfp PPTase inh – inhibitors of Bacillus subtilis Sfp phosphopantetheinyl transferase; AID 1490; Biochemical Sfp PPTase activity, qHTS; Potency, µM, for the others: max response, negative = inhibition, most hits filed as inhibitors; hit rate 3.5% among 310,000; Q9F4F7; active means well fitted inhibition curve with a large enough effect; inconclusive means small, poorly fitted or top-dose-only effect, or another doubt; inactive means no such curve, though single readings can be large or run the other way;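 further: the enzyme is Sfp with the accession as filed and its product quenches rhodamine fluorescence; potency means the concentration at half of the fitted maximal effect; 0% = enzyme reaction without inhibitor and -100% = no enzyme wells; top concentration of the series not given in the record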
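Buffer: 50 mM Hepes-Na pH 7.6, 10 mM MgCl2, 0.01% Nonidet P-40, 0.01% BSA. Enzyme 15 nM, pre-exposed to compound 15 min; substrates then added and fluorescence change tracked over 30 min.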
ClpP mod – qHTS Assay for Activators of ClpP. purified B. subtilis ClpP, FRET peptide cleavage, 20 min. Potency, µM (series often up to 57.5 µM), inactives show at the top dose activity change, negative = active. hit rate 1.9% among 340,000. AID 651965, 2013; active = well fitted falling curve with a large enough effect; inconclusive = small, poorly fitted or top-dose-only effect; inactive = no such curve, though single readings can be large or run the other way; further: potency means the concentration at half of the fitted maximal effect; the source files actives as falling curves though it sought activators and does not explain the sign; nearly all actives have a fitted effect of over 65% in size; many hits overshoot -100%
Target sequence (P80244 whole entry, looked up): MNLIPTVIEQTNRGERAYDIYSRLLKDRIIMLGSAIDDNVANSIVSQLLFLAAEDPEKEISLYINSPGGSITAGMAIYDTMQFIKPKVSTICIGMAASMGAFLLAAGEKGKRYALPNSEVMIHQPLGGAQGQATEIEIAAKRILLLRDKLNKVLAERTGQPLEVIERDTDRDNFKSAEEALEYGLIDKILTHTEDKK
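Purified B. subtilis ClpP, 10 microg/mL final in Tris/HCl pH8 with KCl, BSA, glycerol and Tween-20, cleaved an Abz/nitrotyrosine-quenched decapeptide. Fluorescence (ex 320, em 430) was read at 0 and 20 min at room temperature. Delta was normalized to 5.8 microM ADEP and DMSO/no-enzyme controls.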
PINK1 expr mod – modulators of PINK1 expression. PINK1 immunofluorescence, high-content cytometry, 24 h. Potency, µM (top dose mostly 76.6 µM), without a hit: top-dose activation (PINK1 increase), actives largely listed as activators. hit rate 0.2% among 410,000. AID 624263; active = well fitted activation curve with a large enough effect; inconclusive = small, poorly fitted or top-dose-only effect; inactive = flat fitted curve, though single readings scatter; cell line not stated here;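 further: potency means the concentration at half of the fitted maximal effect; % of control where 0% means no effect; nearly all actives have a fitted effect of over 65% in size; a mitochondrial uncoupler was the plate control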
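Stable cell line treated 24 h with compounds at 5 concentrations (CCCP controls), then fixed and immunostained for PINK1 plus nuclear and cell stains; PINK1 immunofluorescence quantified by laser-scanning microplate cytometry.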
D2 agonist – human D2 receptor agonism in beta-arrestin assay. DiscoveRx PathHunter D2 beta-arrestin, luminescence, 90 min; 100% = 57 uM dopamine signal. activation, % (concentration not given with the values). hit rate 0.084% among 360,000. P14416; in the data active = activation above about 40%; inconclusive = about 15% to 40%; inactive = below about 15%; further: compound concentration not given in the record; the text of the record calls up to 30% inactive
Target sequence (P14416 whole entry, looked up): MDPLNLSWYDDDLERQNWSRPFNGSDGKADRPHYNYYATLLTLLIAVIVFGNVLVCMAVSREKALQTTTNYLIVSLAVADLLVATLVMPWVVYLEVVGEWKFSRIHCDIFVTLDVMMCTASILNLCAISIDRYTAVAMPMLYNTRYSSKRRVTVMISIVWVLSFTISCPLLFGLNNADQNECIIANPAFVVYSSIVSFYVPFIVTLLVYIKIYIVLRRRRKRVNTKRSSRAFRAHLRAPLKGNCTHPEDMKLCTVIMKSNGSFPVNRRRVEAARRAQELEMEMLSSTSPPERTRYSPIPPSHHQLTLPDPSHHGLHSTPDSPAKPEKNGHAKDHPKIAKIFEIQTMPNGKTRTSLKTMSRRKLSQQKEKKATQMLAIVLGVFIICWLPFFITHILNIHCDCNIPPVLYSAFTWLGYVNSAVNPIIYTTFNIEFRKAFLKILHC
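Agonist mode: compounds alone added to overnight-plated D2 PathHunter cells for 90 min at 37 C, with 57 uM final dopamine (EC100) defining full response. Beta-arrestin recruitment detected by chemiluminescent reagent, read after 1 h at ambient temperature.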
Menin MLL FP FL – displaces fluorescein MLL peptide from human menin. AID 1766. 290,000 tested, under 10 active. FP activity change, % at 61.4 µM. Fluorescence polarization, fluorescein-MLL peptide displacement from menin; inconclusive = falling polarisation curve, or a change in total fluorescence; inactive = total fluorescence flat and polarisation flat or rising; no compound was filed as active; the % refers to the polarisation; negative = inhibition;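 further: % of control where 0% means no effect; inhibitors lower the polarisation; unlabelled MLL peptide was the positive control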
gsp ag – gsp mutant agonism | gsp mutant cells, cAMP HTRF, 30 min; control for the full effect not named in the record | Potency, µM (series often up to 76.9 µM), for the others: at the highest dose activation (cAMP increase), usual class: activators | hit rate 0.13% among 340,000 | AID 624287; active = well fitted activation curve with a large enough effect; inconclusive = small, poorly fitted or top-dose-only effect, or another doubt; inactive = no such curve, though single readings can be large or run the other way; cell line not stated here;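 further: phosphodiesterase inhibitor Ro 20-1724 added with compounds to block cAMP breakdown; potency means the concentration at half of the fitted maximal effect; nearly all actives have a fitted effect of over 60% in size; about a fifth of the inactives were tested at one dose only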
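Cells stably selected in G418 were plated at 2000/well, grown 16-24 hr, then given compounds in DMSO with the PDE inhibitor […] (300 uM solution added) for 30 min at 37C; cAMP was read by HTRF.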
Starred values were filed as active, the others as inactive; u = inconclusive; x = not tested or not shown; & = joins results of further samples; [ ] = dose if it differs, or a comment.

SMILES	gsp antagonist	Sfp PPTase inh	ClpP mod	PINK1 expr mod	D2 agonist	Menin MLL FP FL	gsp ag
CC(=O)N1CCN(C(=O)COC(=O)/C=C/c2ccc(C(F)(F)F)cc2)CC1	4%	x	2.7%	-0.8%	-4.8	x	-44%[inhibitor]
Cc1ccc(C(=O)NCCc2nnc3ccc(SCC(=O)Nc4ccccc4C)nn23)cc1	-8%	12%	0.9%	0.2%	0.4	4.8	1%[15.4 µM]
CCN(CC)S(=O)(=O)c1cccc(NC(=O)/C=C/c2ccc([N+](=O)[O-])cc2)c1	-5%	8%	-2.0%	7.4%	0.7	8.6	12%
Cc1nn(CC2CC2)c(=O)n1N(C)c1ncc(C(F)(F)F)cc1Cl	3%	12%	x	0.3%	-3.3	-4.2	9%[15.4 µM]
CCCNC(=O)CSc1nccn1Cc1ccco1	12%	-8%	0.0%	-0.3%	1.0	-5.6	-11%[15.4 µM]
O=C(NC1CC1)c1ccc(C2SCC(=O)N2Cc2ccccc2)cc1 (stereo unspecified)	-1%	10%	x	-2.3%	-1.6	-1.4	4%
O=S(=O)(Nc1cccc(-c2cn3c(n2)SCC3)c1)c1ccccc1F	-8%	-2%	1.0%	-1.0%	-5.1	x	-6%[15.4 µM]
CCC(CC)C(=O)N(C)c1c(C)nc2c(OCc3ccc(OC(F)F)cc3)cccn12	x	x	-1.0%	-0.5%	12	x	x
Cc1nc2ccccn2c(=O)c1NC(=O)c1ccc2c(c1)OCO2	x	x	-12%	2.2%	-1.3	x	u
O=C(NCCS(=O)(=O)N1CCN(c2ccccc2F)CC1)c1cccs1	4%	x	-2.2%	10%	0.1	x	24%
CCn1c(/C=N/Nc2ccc(C(=O)O)cc2)nc2ccccc21	-2%	-5%	-5.6%	-1.0%	1.4	0.6	2%
Cc1ccc(C)c(S(=O)(=O)N2CCN(C(=O)CNC(=O)c3sc4ccccc4c3Cl)CC2)c1	-7%	x	-4.2%	3.0%	1.9	x	13%
Cc1cn(C2OC[C@@H](O)[C@@H]2CO)c(=O)[nH]c1=O (stereo partly specified)	1%	1%&13%	-0.9%	-0.5%	-3.7	0.0&2.0	-11%
CC(=O)NC12CC3CC(C1)CC(C(=O)OCC(=O)Nc1ncc(Cl)c(C)c1Cl)(C3)C2	-20%	-6%	-3.2%	-4.1%	-0.9	u	13%
O=S(=O)(/N=C(/c1ccc(F)cc1)N1CCCCC1)c1ccc(Cl)cc1	-5%	24%	-1.3%	-1.4%	-7.2	-0.4	9%[15.4 µM]
COc1ccc(CNc2cc(C)ccn2)cc1	7%	2%	x	-0.3%	-2.4	-20	19%
COc1cc(NC(=S)NCc2ccco2)cc(OC)c1	-2%	-8%	-0.7%	-1.9%	-3.2	-0.8	0%
O=C(COC(=O)c1ccccc1OCc1ccccc1Cl)NC1CCS(=O)(=O)C1 (stereo unspecified)	-8%	x	-4.2%	-1.0%	5.7	x	-11%
Cc1ccc(NC(=O)Nc2ccc(F)cc2F)c(OC(F)F)c1	8%	8%	0.3%	4.1%	-4.4	-1.7	-11%
CCCn1c(SCC(=O)NCc2ccco2)nnc1C(C)C	-4%	-20%	2.2%	0.5%	-2.3	1.5	-2%
COC(=O)CCC(=O)Nc1cccc(Cl)c1	8%	-4%	-6.1%	1.5%	-1.4	-4.3	u
COc1ccccc1NC(=O)CN1CCC(n2c(C)nc3cc(F)ccc32)CC1	7%	-4%	-2.9%	-1.2%	-1.2	3.8	u
Cc1ccsc1C(=O)OCc1nc2ccccc2c(=O)[nH]1	9%	1%	-16%	2.2%[38.3 µM]	-1.7	-1.4	u
COc1ccc([N+](=O)[O-])cc1NC(=O)c1csc(C)c1	-5%	9%	1.3%	-0.6%	0.8	x	32%
CCOC(CNC(=O)Cn1nc(Cc2ccncc2)c2ccccc2c1=O)OCC	10%	18%	x	-0.9%	1.2	-1.3	17%

The results go on.
SMILES	gsp antagonist	Sfp PPTase inh	ClpP mod	PINK1 expr mod	D2 agonist	Menin MLL FP FL	gsp ag
O=C(NNC1=Nc2cccc3cccc1c23)c1ccc(Br)cc1	-21%	-15%	x	19%	-0.1	u	-7%
COc1ccccc1NC(=O)CC1C(=O)NCCN1C(=O)Nc1ccc(Cl)c(Cl)c1 (stereo unspecified)	-7%	-5%	0.2%	1.4%	-0.9	1.4	1%
COc1ccc(OC)c(/C=C/C(=O)OCC(=O)Nc2nnc(-c3ccccc3)o2)c1	0%	x	u	-0.8%	-4.1	x	20%
CC1CCCC(O)(C(C(=O)O)c2ccccc2)C1 (stereo unspecified)	11%	x	x	-1.3%	-2.5	x	19%
COc1ccc(-c2c(-c3cc(OC)cc(OC)c3)n(C)c3ccc(-c4cc(F)cc(OC)c4)cc23)cc1	4%	x	26%	1.0%	-1.0	x	x
O=C(COC(=O)/C=C/c1ccc(OC(F)F)cc1)NC(=O)NCc1ccccc1	4%	x	-0.2%	10%	4.2	x	-22%
COc1cc(OC)cc(C(=O)NCC(=O)N2CCCCC2)c1	-3%	13%	-6.7%	2.1%	-3.8	-0.4	22%
O=S(=O)(Nc1nc2ccccc2[nH]1)c1ccc2ccccc2c1	-7%	2%	-1.1%	1.9%[38.3 µM]	0.0	0.1	-10%
Cc1cc(C)c(NC(=O)C2CC(=O)N(c3ccc4c(c3)OCCO4)C2)c(C)c1 (stereo unspecified)	-3%	12%	-4.7%	-1.8%	0.2	2.0	-7%
COc1ccc(C)cc1NC(=O)COC(=O)C1CCN(C(=O)c2ccc(Cl)cc2)CC1	-3%	5%	x	0.9%	1.7	5.0	20%
O=C(CCC(=O)N1CCN(c2ccc(C(F)(F)F)cn2)CC1)c1cccs1	-4%	x	u	-0.3%	-0.7	x	4%
O=C(Nc1ccc([N+](=O)[O-])cc1)N1CCc2ccccc2C1	-9%	5%	-0.3%	-0.5%	1.7	0.6	3%[15.4 µM]
CC(O)CNCc1cccc2ccccc12 (stereo unspecified)	-7%	25%	1.0%	0.3%	0.4	3.0	26%
COc1ccccc1CNC(=O)c1ccc2nc(C)c(N(C)Cc3ccc(NC(C)=O)cc3)n2c1	x	x	0.6%	0.3%	-0.9	x	x
Cc1cc(C(=O)CSCCCn2c(=O)[nH]c3ccccc32)c(C)n1C	u	-25%	-0.7%	-1.2%	1.4	-0.5	10%
COc1cccc(-c2ncc3ccccc3c2COC(=O)c2ccc(C(C)(C)C)cc2)c1	3%	x	u	2.3%	-4.2	x	15%
Cc1ncc([N+](=O)[O-])n1CC(=O)Nc1ccccc1F	13%	2%	-2.2%	1.5%	-2.1	0.3	9%
O=C(C1CC1)N1CCc2cc(S(=O)(=O)NC3CCN(Cc4ccccc4)CC3)ccc21	5%	9%	0.1%	-0.1%	-3.6	0.7	-29%
CNC(=O)Oc1ccc2c(c1)[C@]1(C)CCN(C)C1N2C (stereo partly specified)	5%	x	3.6%	4.2%	5.9	x	x
O=C(c1ccc(F)cc1)N(C(=O)c1ccc(F)cc1)c1ncccn1	4%	7%	x	-1.0%	-0.7	-7.1	u
COc1cc2nc(CC(C)C)n(NC(=O)c3ccccc3Br)c(=O)c2cc1OC	-8%	5%	-0.1%	4.4%	-3.5	-1.7	9%
O=S(=O)(Nc1nc2ccccc2nc1Cl)c1ccccc1	4%	17%	-18%	0.6%	0.1	3.4	u
Cc1ccccc1CSc1nc(-c2ccccc2)cc(=O)[nH]1	3%	6%	-1.4%	-3.2%	-1.0	6.4	u
Cc1onc(-c2ccccc2Cl)c1C(=O)N1C=CC(C(F)(F)Cl)=NCC1	-1%	30%[activator]	-2.5%	-0.6%	2.7	8.1	-4%
COc1cc(C(=O)N2CCN(C3CCCCC3)CC2)cc(OC)c1OC	14%	-18%	0.1%	1.3%	0.8	0.7	1%

Remaining list, next part
SMILES	gsp antagonist	Sfp PPTase inh	ClpP mod	PINK1 expr mod	D2 agonist	Menin MLL FP FL	gsp ag
O=C(Nc1ccc(Cl)cc1)Nc1nnc(CSc2ccc(Cl)cc2)s1	16%	23%	x	u	0.3	4.2	-14%
Brc1ccc(/C=N/c2nc3ccccc3n2CCN2CCOCC2)cc1	7%	4%	-1.1%	0.0%	-1.9	7.4	6%
COc1ccc2c(c1)c1ncn(Cc3ccco3)c(=O)c1n2C	18%	18µM*	-3.5%	-0.2%	-3.1	-2.1	5%
Cn1c(=O)cc(OCC(=O)NCc2cccs2)c2ccccc21	-8%	4%	x	8.4%	2.0	-2.0	-4%
CCCCn1nnnc1NCc1cc(OC)c(OC)c(OC)c1	-4%	17%	-0.5%	0.6%[38.3 µM]	-1.8	2.6	-3%
N#CCC(=O)NC(=O)NCC1CC1	19%	-6%&-1%	0.7%	-1.1%	-1.4	2.5&3.0	-28%
O=C(/C=C/c1ccco1)OCC1CCCN2CCCCC12 (stereo unspecified)	1%	-6%	x	-0.3%	-1.1	-0.8	-3%
COc1cccc(-c2cccc(-c3nc(C(=O)NCc4ccc(Oc5ccccc5)cc4)cc4c3[C@H](CCO)N(S(=O)C(C)(C)C)C4)c2)c1 (stereo partly specified)	x	x	-2.8%	0.0%	6.9	x	x
Cc1sc2ncnc(N3CCC(C(=O)Nc4ccc(Br)cc4Br)CC3)c2c1C	u	x	-13%	0.1%	1.4	x	12%
Cc1cc(-c2ccc(C(C)C)c(S(=O)(=O)Nc3ccccn3)c2)on1	-13%	-9%	3.2%	-1.8%	4.5	-3.1	19%
CCCCn1cnc2cc(C)c(C)cc21	-14%	27%	x	-1.7%	-1.6	-0.3	-3%
Nc1ncnc2c1ncn2[C@@H]1O[C@H](C(=O)NS(=O)(=O)c2cccs2)[C@@H](O)[C@H]1O	x	x	-0.6%	2.0%	3.4	x	x
CCOc1ccc(C2N(c3ccc(F)cc3)C(=O)C3CCCN32)cc1 (stereo unspecified)	2%	-1%	-0.6%	-0.3%	-2.9	8.3	u
CC(C)C(=O)N1CCN(c2ccccc2NC(=O)c2ccc([N+](=O)[O-])o2)CC1	u	17%	-0.6%	-0.8%	11	-1.0	-25%
